# Screening results deposited in PubChem by National Center for Advancing Translational Sciences (NCATS).
# PINK1 expr mod: PINK1 expression modulation; 410,000 compounds, 0.2% hits; PINK1 immunofluorescence, high-content cytometry, 24 h; Potency, µM (series often up to 76.6 µM), without a hit: at the top dose activation (PINK1 increase), most hits filed as activators; AID 624263; active = well fitted activation curve with a large enough effect; inconclusive = small, poorly fitted or top-dose-only effect; inactive = flat fitted curve, though single readings scatter; cell line not stated here;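 note: potency is the fitted concentration of half-maximal effect; % of control where 0% means no effect; nearly all actives have a fitted effect of over 65% in size; a mitochondrial uncoupler was the plate control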
#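 Stable cell line, 250 cells/well, 12 h attachment; compounds pinned at 5 concentrations, 24 h; CCCP control. Fixed with nuclear dye, primary antibodies 12 h at 10 degrees C, secondary plus cell stain; laser-scanning cytometer read.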
# ClpP mod: qHTS Assay for Activators of ClpP. purified B. subtilis ClpP, FRET peptide cleavage, 20 min. AID 651965, 2013. ATP-dependent Clp protease proteolytic subunit (Bacillus subtilis (strain 168)), P80244. Potency, µM (top dose mostly 57.5 µM), without a hit: at the top dose activity change, negative = active. 340,000 compounds, 1.9% hits; active = well fitted falling curve with a large enough effect; inconclusive = small, poorly fitted or top-dose-only effect; inactive = no such curve, though single readings can be large or run the other way; note: potency is the fitted concentration of half-maximal effect; the source files actives as falling curves though it sought activators and does not explain the sign; nearly all actives have a fitted effect of over 65% in size; many hits overshoot -100%
# Target sequence (P80244 whole entry, looked up): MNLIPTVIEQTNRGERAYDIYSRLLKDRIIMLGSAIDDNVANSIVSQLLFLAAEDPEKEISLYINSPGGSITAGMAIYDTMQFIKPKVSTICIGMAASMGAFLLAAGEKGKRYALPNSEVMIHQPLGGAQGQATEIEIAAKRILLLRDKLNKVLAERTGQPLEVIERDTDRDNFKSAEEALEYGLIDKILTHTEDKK
#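 Purified B. subtilis ClpP, 10 microg/mL final in Tris/HCl pH8 with KCl, BSA, glycerol and Tween-20, cleaved an Abz/nitrotyrosine-quenched decapeptide. Fluorescence (ex 320, em 430) was read at 0 and 20 min at room temperature. Delta was normalized to 5.8 microM ADEP and DMSO/no-enzyme controls.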
# Sfp inh: inhibitors of Bacillus subtilis Sfp phosphopantetheinyl transferase; Biochemical Sfp PPTase activity, qHTS; Q9F4F7; Potency, µM, for the others: max response, negative = inhibition, actives largely listed as inhibitors; 310,000 compounds, 3.5% hits; active = well fitted inhibition curve with a large enough effect; inconclusive = small, poorly fitted or top-dose-only effect, or another doubt; inactive = no such curve, though single readings can be large or run the other way;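 note: the enzyme is Sfp with the accession as filed and its product quenches rhodamine fluorescence; potency is the fitted concentration of half-maximal effect; 0% = enzyme reaction without inhibitor and -100% = no enzyme wells; top concentration of the series not given in the record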
#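 Compounds were incubated with enzyme (final 15 nM) for 15 min at room temperature before substrate addition started the reaction. Fluorescence at 525 nm excitation, 598 nm emission was recorded immediately and after 30 minutes.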
# D2 ag: human D2 receptor agonism in beta-arrestin assay; AID 624465; P14416; activation, % (concentration not given with the values); DiscoveRx PathHunter D2 beta-arrestin, luminescence, 90 min; 100% = 57 uM dopamine signal; 360,000 compounds, 0.084% hits; in the data active = activation above about 40%; inconclusive = about 15% to 40%; inactive = below about 15%; note: the text of the record calls up to 30% inactive
# Target sequence (P14416 whole entry, looked up): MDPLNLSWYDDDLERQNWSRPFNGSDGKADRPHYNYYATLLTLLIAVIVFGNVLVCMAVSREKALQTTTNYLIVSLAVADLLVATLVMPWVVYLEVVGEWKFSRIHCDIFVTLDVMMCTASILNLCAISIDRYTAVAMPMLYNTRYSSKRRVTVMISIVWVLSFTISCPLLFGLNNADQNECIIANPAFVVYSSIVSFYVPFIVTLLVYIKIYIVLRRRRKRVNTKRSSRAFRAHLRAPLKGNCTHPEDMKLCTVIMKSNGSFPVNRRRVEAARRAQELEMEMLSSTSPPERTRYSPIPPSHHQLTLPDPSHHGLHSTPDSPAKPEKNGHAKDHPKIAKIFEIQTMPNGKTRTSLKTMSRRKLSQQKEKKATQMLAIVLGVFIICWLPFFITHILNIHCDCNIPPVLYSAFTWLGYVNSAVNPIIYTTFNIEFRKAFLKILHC
#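 Agonist mode: compounds alone added to overnight-plated D2 PathHunter cells for 90 min at 37 C, with 57 uM final dopamine (EC100) defining full response. Beta-arrestin recruitment detected by chemiluminescent reagent, read after 1 h at ambient temperature.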
# gsp antag: antagonizes gsp, the McCune-Albright syndrome mutation; AID 624288; Potency, µM (top dose mostly 76.9 µM), for inactives: at the highest dose activity change, negative = inhibition, hits mostly inhibitors; gsp-mutant cells, cAMP HTRF, 30 min; control for the full effect not named in the record; 340,000 compounds, 0.4% hits; active = falling curve of any shape with a large fitted effect; inconclusive = falling curve, mostly with a smaller effect; inactive = flat or rising curve; cell line not stated here;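 note: intracellular cAMP measured with PDE inhibitor Ro 20-1724 present during compound exposure; potency is the fitted concentration of half-maximal effect; % is set by controls: 0 for no effect and ±100 for the full control effect; nearly all actives have a fitted effect of over 65% in size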
#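 Cells, 2000/well, grown 16–24 h in DMEM 10% FBS with 0.5 mg/ml G418, then compounds plus […] (300 uM addition stock), 30 min at 37C. cAMP read by HTRF (cAMP-d2 and anti-cAMP antibody-K in lysis buffer) after 30 min RT.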
# gsp ag: gsp mutant agonism. 340,000 compounds, 0.13% hits. gsp mutant cells, cAMP HTRF, 30 min; control for the full effect not named in the record. Potency, µM (top dose mostly 76.9 µM), for the others: at the highest dose activation (cAMP increase), hits mostly activators; active = well fitted activation curve with a large enough effect; inconclusive = small, poorly fitted or top-dose-only effect, or another doubt; inactive = no such curve, though single readings can be large or run the other way; cell line not stated here;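 note: phosphodiesterase inhibitor Ro 20-1724 added with compounds to block cAMP breakdown; potency is the fitted concentration of half-maximal effect; nearly all actives have a fitted effect of over 60% in size; about a fifth of the inactives were tested at one dose only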
#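 Cells stably selected in G418 were plated at 2000/well, grown 16-24 hr, then given compounds in DMSO with the PDE inhibitor […] (300 uM solution added) for 30 min at 37C; cAMP was read by HTRF.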
# Menin MLL FP FL: displaces fluorescein MLL peptide from human menin | Fluorescence polarization, fluorescein-MLL peptide displacement from menin | FP activity change, % at 61.4 µM | 290,000 tested, under 10 active | AID 1766; inconclusive = falling polarisation curve, or a change in total fluorescence; inactive = total fluorescence flat and polarisation flat or rising; no compound was filed as active; the % refers to the polarisation; negative = inhibition;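 note: % of control where 0% means no effect; inhibitors lower the polarisation; unlabelled MLL peptide was the positive control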
# * marks the source's active call; other numbers are inactive results; u = inconclusive; x = no result given; & = joins results of further samples; [ ] = remark or other dose.
# Each structure is followed by: PINK1 expr mod	ClpP mod	Sfp inh	D2 ag	gsp antag	gsp ag	Menin MLL FP FL
1	CS(=O)(=O)N(CC(=O)NCCSCc1ccccc1)c1ccc2c(c1)OCO2
  1.9%	x	11%	-1.3	x	-1%[15.4 µM]	-0.2
2	COc1ccc(C)cc1NCc1ccc([N+](=O)[O-])cc1
  -1.0%	-0.6%	5%	1.1	7%	-5%[15.4 µM]	2.4
3	CCCCOc1ccc(C(=O)NCCCC(=O)N2CCCCC2)cc1
  -2.5%[38.3 µM]	-1.8%	-2%	-0.7	-8%	2%	4.2
4	CC1=NNC(=O)C1CCC(=O)N/N=C/c1ccc(Cl)cc1Cl (stereo unspecified)
  -0.8%	0.3%	14%	-4.1	0%	-24%	-1.8
5	O=C(Cn1nc(Cc2ccncc2)c2ccccc2c1=O)Nc1cccnc1Cl
  0.4%	-2.1%	1%	-0.1	5%	u	2.8
6	O=C(COC(=O)c1cc([N+](=O)[O-])ccc1Cl)NCCc1ccccc1
  0.7%	-2.9%	x	-1.7	-13%	u	x
7	CCN(c1ccccc1)S(=O)(=O)c1c(C)noc1C
  -5.8%	-3.3%	x	-2.3	9%	0%	x
8	COc1cc(NC(=S)N2CCN(C)CC2)c(OC)cc1Cl
  -0.5%	-0.2%	28µM*	-2.3	2%	-35%[inhibitor]	-1.7
9	Cc1ccc(S(=O)(=O)NC(=NC2CCCCC2)c2ccc(F)cc2)cc1
  5.0%	-2.5%	5%	-5.8	-4%	11%[15.4 µM]	2.4
10	COc1ccc(NS(=O)(=O)c2coc(C(N)=O)c2)cc1Cl
  1.8%	0.4%	19%	4.3	2%	u	9.6
11	Cc1nc2ncnn2c(C)c1CCC(=O)N1CC(C)CC(C)C1 (stereo unspecified)
  -1.8%	0.3%	12%	-1.3	17%	u	2.1
12	COc1cc2nc(Nc3ccc(F)cc3)nc(N)c2cc1OC
  -2.6%&-0.1%	-16%&-27%	u	0.8	-2%	-12%	-3.7
13	O=C(CSc1ccccn1)N/N=C/c1cc([N+](=O)[O-])ccc1O
  3.0%	0.1%	17%	-9.0	u	-29%	-5.4
14	O=C(/C=C/NNC(=O)c1ccccc1)c1ccc([N+](=O)[O-])cc1
  -0.5%	x	9%	2.9	-33%	-2%[15.4 µM]	2.9
15	CCOc1ccc(C(C(=O)NC2CCCC2)N(C(=O)c2snc(C(N)=O)c2N)C2CCCC2)cc1 (stereo unspecified)
  -0.6%	-2.3%	17%	-4.0	-4%	3%[15.4 µM]	0.0

# Structural class, the entries above with a nitro group on carbon.
# Each structure is followed by: PINK1 expr mod	ClpP mod	Sfp inh	D2 ag	gsp antag	gsp ag	Menin MLL FP FL
2	COc1ccc(C)cc1NCc1ccc([N+](=O)[O-])cc1
  -1.0%	-0.6%	5%	1.1	7%	-5%[15.4 µM]	2.4
6	O=C(COC(=O)c1cc([N+](=O)[O-])ccc1Cl)NCCc1ccccc1
  0.7%	-2.9%	x	-1.7	-13%	u	x
13	O=C(CSc1ccccn1)N/N=C/c1cc([N+](=O)[O-])ccc1O
  3.0%	0.1%	17%	-9.0	u	-29%	-5.4
14	O=C(/C=C/NNC(=O)c1ccccc1)c1ccc([N+](=O)[O-])cc1
  -0.5%	x	9%	2.9	-33%	-2%[15.4 µM]	2.9

# An excerpt from above in order of the Menin MLL FP FL value, rising:
No. | Molecule | PINK1 expr mod | Sfp inh | D2 ag | gsp antag | gsp ag | Menin MLL FP FL
1 | CS(=O)(=O)N(CC(=O)NCCSCc1ccccc1)c1ccc2c(c1)OCO2 | 1.9% | 11% | -1.3 | x | -1%[15.4 µM] | -0.2
14 | O=C(/C=C/NNC(=O)c1ccccc1)c1ccc([N+](=O)[O-])cc1 | -0.5% | 9% | 2.9 | -33% | -2%[15.4 µM] | 2.9
3 | CCCCOc1ccc(C(=O)NCCCC(=O)N2CCCCC2)cc1 | -2.5%[38.3 µM] | -2% | -0.7 | -8% | 2% | 4.2

# Quoted from the listing.
# PINK1 expr mod with compound 13 = 3.0%
# Menin MLL FP FL with compound 2 = 2.4

# New compounds follow:
# Each structure is followed by: PINK1 expr mod	ClpP mod	Sfp inh	D2 ag	gsp antag	gsp ag	Menin MLL FP FL
16	Cc1ccccc1CSCc1nc(N)nc(Nc2ccccc2C)n1
  0.1%	x	-3%	-5.4	-7%	-14%[15.4 µM]	2.8
17	Cc1nn(-c2cc(C(F)(F)F)ccc2Cl)c2nc(C(F)(F)F)[nH]c(=O)c12
  4.3%	-1.5%	8%	-1.2	4%	-14%	1.8
18	CC(NC(=O)c1ccco1)C(=O)OCC(=O)c1ccc(Cl)s1 (stereo unspecified)
  0.1%	x	1%	-3.3	1%	19%	0.1
19	C=C(C)CN(CC)C(=O)CSc1ccc(S(=O)(=O)N2CCN(Cc3ccccc3)CC2)cn1
  -0.2%	-1.7%	x	4.6	-11%	-43%[inhibitor]	x
20	COc1ccc(C(=O)n2nc(-c3ccc(OC)cc3)nc2N)cc1
  6.7%	-2.8%	14%	-1.2	-8%	-29%	-2.9
21	COc1cccc(/C=C/C(=O)c2c(O)cc(C)oc2=O)c1O
  -5.0%	-0.3%	5%	-1.6	u	15%	u
22	CCOc1cc(/C=C2/C(=N)N3C(=NC2=O)SN=C3S(C)(=O)=O)ccc1OS(=O)(=O)c1ccccc1
  3.5%	-2.6%	-5%	-3.2	-16%	25%	x
23	CC(C)(C)c1ccc(C(=O)NCc2cccnc2)cc1
  -0.4%	-0.5%	18%	0.1	7%	-27%	1.5
24	Cc1sc2nc(SCc3nc4ccccc4[nH]3)n(Cc3ccco3)c(=O)c2c1C
  2.0%	-16%	8%	-1.2	12%	-19%	12
25	O=C(CCCCCn1c(=S)[nH]c2ccc(N3CCOCC3)cc2c1=O)NCc1ccccc1
  24%	-0.6%	4%	-7.8	-22%	1%[15.4 µM]	2.1
26	COc1ccc(OCC(=O)Nc2ccc(N3CCN(C(=O)c4ccccc4)CC3)c(Cl)c2)cc1
  1.5%	3.9%	15%	4.6	-8%	-6%[15.4 µM]	x
27	CCCc1nnc(NC(=O)CCC(=O)N2CCN(Cc3ccccc3)CC2)s1
  -1.3%	-2.0%	12%	0.4	4%	1%	x
28	Cc1cccc(C(=O)OCC(=O)NC2CCCCCCC2)c1
  0.9%	-1.4%	x	-4.2	16%	5%	x
29	CCOC(CN=c1nc(N(C)C)ss1)OCC
  -6.2%	-0.8%	x	-15	-4%	-7%	x
30	CCOc1ccccc1NC(=O)CSc1nnc(CNC(=O)c2cc(OC)c(OC)c(OC)c2)o1
  0.4%	-3.3%	12%	7.0	2%	-14%	x
31	Cc1cccc(C2=NN(c3ccccc3)[C@H](CO)[C@H]2c2ccccc2)c1
  13%	4.0%	18%	0.6	1%	x	6.7[94.6 µM]
32	Cc1ccc(NC(=O)c2ccc(-n3cccn3)nc2)cc1
  4.5%	x	18%	3.7	2%	-1%	3.9
33	COc1ccc(S(=O)(=O)N(C)C)cc1NC(=O)COC(=O)c1n[nH]c2ccccc12
  3.7%	-9.8%	x	-4.2	x	-50%[inhibitor]	x
34	O=C(Nc1ccccc1)C1=C[C@@H](c2csc3ccccc23)C[C@@H](OCc2ccc(CO)cc2)O1
  3.2%	-8.4%	17%	1.9	-3%	x	8.5
35	CSCCC(NC(=O)c1ccccc1)C(=O)N1CCN(C(c2ccccc2)c2ccccc2)CC1 (stereo unspecified)
  3.9%	-1.3%	12%	-1.6	-13%	21%[15.4 µM]	x
36	Cc1ccc(-c2nc3ccccn3c2C=O)cc1
  -2.3%	-7.3%	-14%	0.4	-15%	-1%	-8.2
37	CC1(NC(=O)c2cccc(S(=O)(=O)N3CCN(c4ccccc4)CC3)c2)CCS(=O)(=O)C1 (stereo unspecified)
  5.0%	-1.5%	x	-0.3	3%	-2%	x
38	Fc1ccc(/C=N/Nc2ccccn2)cc1
  -0.6%	x	7%	-2.4	11%	39%[15.4 µM]	-0.9
39	COc1ccc(NC(=O)C(=O)NCC(=O)Nc2cc(OC)ccc2OC)cc1
  6.6%	10µM*	-25%	-5.5	2%	4%[15.4 µM]	-1.1
40	Cc1ccc(-c2nnn(CC(=O)N(CC(=O)NCc3ccccc3)c3cccc(C)c3C)n2)o1
  -3.1%[38.3 µM]	-0.5%	25µM*	0.5	-8%	u	8.5
41	CC(O)c1cccc(NC(=O)CC(c2ccccc2)c2ccccc2)c1 (stereo unspecified)
  1.4%	0.8%	18%	0.5	-17%	5%	-0.3
42	CCOC(=O)c1oc2ccccc2c1CSc1nnnn1-c1ccc(OC)cc1
  6.3%[38.3 µM]	-1.8%	5%	1.1	13%	4%	5.1
43	O=C(COc1ccc(Cl)cc1)Nc1ccc(C(=O)NCc2cccnc2)cc1
  2.7%	0.7%	22%	1.5	-29%	5%	5.2
44	CCCc1c(NC(=O)Nc2ccc(Cl)cc2Cl)cnn1-c1ccccc1
  -1.0%	x	-4%	-2.6	-9%	u	3.0
45	COc1cccc(C(=O)NCCS(=O)(=O)N2CC(C)CC(C)C2)c1 (stereo unspecified)
  -1.4%	0.5%	x	2.8	9%	-39%[inhibitor]	x
46	CC1CCN(CC(C)CNC(=O)c2cc(-c3ccccn3)nc3ccccc23)CC1 (stereo unspecified)
  4.1%[38.3 µM]	-8.1%	11%	-1.9	7%	-13%	-9.1
47	CC(=O)Nc1ccc2nc(-c3ccccc3)cn2c1
  2.7%	3.5µM*	10%	-1.5	-3%	-5%[15.4 µM]	9.4
48	CC(=O)N1CCOc2ccc(S(=O)(=O)N3CCC(C(=O)Nc4ccc(F)cc4)CC3)cc21
  -0.8%	0.9%	4%	0.0	-16%	u	x
